Screening data from PubChem BioAssay.
SARS PLpro yeast: qHTS of Yeast-based Assay for SARS-CoV PLP. S. cerevisiae expressing SARS-CoV PLpro, growth rescue; control for the full effect not named in the record. 330,000 compounds, 0.19% hits. Potency, µM (top dose mostly 32.9 µM), for the others: at the top dose activity, positive = growth rescue. AID 485353, 2010; active means well fitted rising curve with a large enough effect; inconclusive means small, poorly fitted or top-dose-only effect; inactive means no such curve, though single readings can be large or run the other way; also: 0% is about no effect; nearly all actives have a fitted effect of over 55% in size; growth read by luminescence after 48 h
Lassa entry inh: qHTS for Inhibitors of binding or entry into cells for Lassa Virus; Potency, µM (doses to about 37.9 µM), inactives show at the highest dose activity change, negative = inhibition, usual class: inhibitors; Lassa virus pseudotype entry inhibition, cell reporter; control for the full effect not named in the record; 300,000 compounds, 1.2% hits; active means well fitted inhibition curve with a large enough effect; inconclusive means small, poorly fitted or top-dose-only effect, or effect the other way; inactive means flat fitted curve, though single readings scatter; tested in HEK293 cells; also: % is scaled to controls: 0 for no effect and ±100 for the full control effect; nearly all actives have a fitted effect of over 50% in size; luciferase read-out
Marburg entry inh: qHTS for inhibitors of binding or entry into cells for Marburg Virus | Marburg virus pseudotyped entry inhibition, cell reporter; control for the full effect not named in the record; about a third of the inactives were read at about 46 µM | Potency, µM (highest dose often 37.8 µM), for the others: at the highest dose activity change, negative = inhibition, most hits filed as inhibitors | 300,000 compounds, 1.8% hits | AID 540276, 2011; active = well fitted inhibition curve with a large enough effect; inconclusive = small, poorly fitted or top-dose-only effect, or effect the other way; inactive = flat fitted curve, though single readings scatter; tested in HEK293 cells; about a fifth of its hits are not listed in these tables; also: % is scaled to controls: 0 for no effect and ±100 for the full control effect; luciferase read-out
Cruzain Triton: qHTS Assay for Promiscuous and Specific Inhibitors of Cruzain (with detergent); Cruzipain (Trypanosoma cruzi), P25779; purified cruzain, Z-FR-AMC fluorescence, 0.01% Triton; Potency, µM, for the others: max response, negative = inhibition, hits mostly inhibitors; 200,000 compounds, 0.43% hits; AID 1478, 2009;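 also: plate controls were neutral wells for no effect and buffer without enzyme for full effect; nearly all actives have a fitted effect of over 40% in size; top concentration of the series not given in the record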
Target sequence (P25779 123-467 limits assumed): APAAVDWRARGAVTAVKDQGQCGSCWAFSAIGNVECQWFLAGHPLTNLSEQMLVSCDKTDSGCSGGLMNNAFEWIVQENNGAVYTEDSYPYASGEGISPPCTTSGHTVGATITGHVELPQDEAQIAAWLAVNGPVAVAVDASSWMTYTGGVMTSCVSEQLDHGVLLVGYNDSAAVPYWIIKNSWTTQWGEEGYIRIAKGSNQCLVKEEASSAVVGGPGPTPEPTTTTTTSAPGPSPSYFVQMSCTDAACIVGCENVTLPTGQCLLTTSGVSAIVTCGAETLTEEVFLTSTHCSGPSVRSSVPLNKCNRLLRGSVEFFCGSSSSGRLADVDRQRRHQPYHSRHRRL
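Steps: dispense cruzain (1.5 nM final) in acetate buffer pH 5.5 with DTT and 0.01% Triton X-100; pin-transfer compounds; incubate 15 min RT; add Z-FR-AMC (2 uM final); read fluorescence every 30 s, using the 60 s intensity change.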
RE007 growth inh: qHTS Assay for Inhibitors of the HIV-1 protein Vpr | S. pombe RE007 Vpr strain, BacTiter-Glo ATP luminescence, 24 h; control for the full effect not named in the record | Potency, µM (top dose mostly 92.2 µM), inactives show at the top dose activity change, negative = less growth | 360,000 compounds, 0.21% hits | AID 651644, 2012; active = well fitted falling curve with a large enough effect; inconclusive = small, poorly fitted or top-dose-only effect; inactive = no such curve, though single readings can be large or run the other way;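 also: % is scaled to controls: 0 for no effect and ±100 for the full control effect; nearly all actives have a fitted effect of over 50% in size; the assay follows cell death caused by Vpr and the record does not say whether a fall means rescue or toxicity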
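Fission yeast strain RE007, carrying one chromosomally integrated HIV-1 vpr copy, was seeded at OD 0.01 in PMG+AL medium with 23 nL pinned compound. After 24 h at 30 °C and 99% humidity, viability was read by BacTiter-Glo luminescence.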
2A StopGo: High Throughput Screening for Foot and Mouth Disease Virus Antivirals | human cells with a luciferase reporter of 2A StopGo recoding; control for the full effect not named in the record | Potency, µM (titrated, usually from 57.9 µM), for the others: top-dose signal change, negative = less light | 410,000 compounds, 1.2% hits | AID 1159524, 2015; active = well fitted falling curve with a large enough effect; inconclusive = small, poorly fitted or top-dose-only effect; inactive = no such curve, though single readings can be large or run the other way; tested in HEK293T cells; also: % is scaled to controls: 0 for no effect and ±100 for the full control effect; nearly all actives have a fitted effect of over 45% in size; luciferase light after 4 h
Cruzain inh noDet: qHTS Assay for Promiscuous and Specific Inhibitors of Cruzain (without detergent); AID 1476, 2009; Potency, µM, inactives show max response, negative = inhibition, actives largely listed as inhibitors; 200,000 compounds, 2.3% hits; purified cruzain, Z-FR-AMC fluorescence, no detergent; Cruzipain (Trypanosoma cruzi), P25779;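 also: plate controls were enzyme without inhibitor for no effect and buffer without enzyme for full effect; nearly all actives have a fitted effect of over 40% in size; top concentration of the series not given in the record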
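Purified cruzain at 1.5 nM, pre-incubated 15 min with compound at room temperature in 100 mM sodium acetate pH 5.5, 5 mM DTT, 0.00005% Triton X-100. Reaction started with 2 uM Z-FR-AMC; AMC fluorescence increase over 60 s gives rate.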
NS1 function inh: qHTS Assay for Inhibitors of Influenza NS1 Protein Function; Potency, µM (top dose mostly 46.1 µM), inactives show at the top dose activity, positive = more growth; AID 2326, 2010; 270,000 compounds, 0.4% hits; S. cerevisiae slowed by influenza A NS1, growth recovery by OD600; active means well fitted rising curve with a large enough effect; inconclusive means small, poorly fitted or top-dose-only effect; inactive means no such curve, though single readings can be large or run the other way; also: nearly all actives have a fitted effect of over 50% in size
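OD600 was taken as the measure of yeast growth restored by compound in an NS1-expressing S. cerevisiae strain. Cells had been washed out of glucose medium and diluted 1:100 into galactose -URA medium, pH 6.0.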
* = called active by the depositor; ? = inconclusive; · = not tested or not shown; & = joins results of further samples; [ ] = dose if it differs, or a comment. Unless noted, calls follow the shape of the dose curve; as a rule, active = well fitted curve in the direction sought with a large enough effect; inconclusive = small, poorly fitted or top-dose-only effect, or another doubt; inactive = no such curve, though single readings can be large; an effect the other way counts as inactive or inconclusive. Potency is read from the fitted curve at half-maximal effect.

SMILES	SARS PLpro yeast	Lassa entry inh	Marburg entry inh	Cruzain Triton	RE007 growth inh	2A StopGo	Cruzain inh noDet	NS1 function inh
Cc1ccc(CNC(=O)CN2CCCN(Cc3ccc(F)cc3)S2(=O)=O)cc1	·	11µM*	·	-1.6%	·	-15%	?	·
NS(=O)(=O)c1ccc2c(c1)oc(=O)c1cc(S(N)(=O)=O)ccc12	1%	14%[46.1 µM]	-1%[46.1 µM]	·	-4%	4%	·	3%
OCCN(CCO)CC(O)COc1ccc(C23CC4CC(CC(C4)C2)C3)cc1 (stereo not given)	-25%	?	?	-4.4%	-9%	0%	26%	-6%
COc1ccc(CCNC(=O)C2CCN(S(=O)(=O)N3CCOCC3)CC2)cc1OC	3%	-3%	13%	1.8%	4%	6%	3%	-8%
COc1ccccc1CN(C(=O)CCl)C(C(=O)NC1CCCCC1)c1ccncc1 (stereo not given)	-2%	0%	2%	-15%	2%	-13%	?	10%
CC(=O)N1CCOCCOCCN(C(C)=O)CCOCC1	0%	21%[46.1 µM]	?	·	2%	-15%	·	·
CCOC(=O)C1CCN(C(=O)CCc2c(C)nc3cc(-c4ccc(OC)cc4OC)nn3c2C)CC1	-3%	0%[46.1 µM]	13%[46.1 µM]	·	12%	-8%	·	·
CCCCC(C(=O)O)C(C)CC(=O)Nc1cccc(C(=O)O)c1 (stereo not given)	0%	4%	10%	-2.0%	-6%	-18%	8%	0%
COc1cc(NC(=O)COC(=O)C=C(C)C)c(C)cc1[N+](=O)[O-]	-4%	10%[46.1 µM]	-3%[46.1 µM]	·	-10%	1%	·	·
O=C(NNS(=O)(=O)c1ccccc1[N+](=O)[O-])c1cccc(Br)c1	0%	20%	8%	·	3%	0%	·	4%
Cc1cccn2c(=O)c3cc(C#N)c(=O)n(Cc4cccnc4)c3nc12	1%	-18%	1%&1%	-0.5%	-4%	12%	?	0%
CC(C)(C)n1cc(C(=O)c2ccccc2)cc1-c1ccccc1	2%	·	·	·	9%	-19%	·	3%
CCn1cc(CN2CCCC(C(=O)c3ccc(-c4ccccc4)cc3)C2)cn1 (stereo not given)	-1%	?	?	·	-5%	-9%	·	2%
O=C(NCCN1CCOCC1)c1cc2cc(Br)ccc2oc1=O	-10%	·	0%	5.6%	-11%	-17%	-13%	1%
CCn1nc(C)c(CNC(=O)CCc2nnc(Cc3c[nH]c4ccccc34)o2)c1C	0%	6%[46.1 µM]	-4%[46.1 µM]	·	-17%	-9%	·	-1%
Cc1ccc([N+](=O)[O-])cc1S(=O)(=O)Nc1cccc(-c2ccc(N3CCCC3)nn2)c1	11µM*	2%	-2%	·	-9%	39%[activator]	·	·
COC(=O)c1ccc(COc2ccc(/C=N/NC(=O)C(=O)Nc3ccc(OC)cc3)cc2OC)o1	-1%	11%	-1%[46.1 µM]	·	1%	0%	·	3%
CC(C)(C)NS(=O)(=O)c1ccc(NS(=O)(=O)c2ccc(F)cc2)cc1	-9%	-4%	3%	-0.7%	0%	4%	-1%	4%
CCCN(CC(=O)Nc1ccccc1C)C(=O)c1cn2ccccc2n1	3%	4%	-7%	·	13%	-20%	·	·
COc1ccc(Br)cc1/C=C/C(=O)Nc1ccc2ccccc2c1	-2%	-2%	?	-2.6%	-16%	-7%	?	4%
O=C(O)c1ccc2c(=O)n3c(nc2c1)/C(=C/c1cccc(Cl)c1Cl)CC3	-2%	3%	24%[46.1 µM]	·	16%	-5%	·	3%
CCOC(=O)c1ccc(NC(=O)CSc2nnc(CNc3ccc(C)cc3)n2C)cc1	-7%	-1%	1%[46.1 µM]	-1.1%	0%	-21%	?	6%
Cc1cc(C)c2c(CC(=O)Nc3nnc(C(C)C)s3)coc2c1	·	-24%[46.1 µM]	?	-3.7%	·	-13%	?	·
COc1cccc(CN2C(=O)CCC2(C)C(=O)NC2CCCCCC2)c1 (stereo not given)	1%	-15%	16%	0.8%	2%	-18%	-4%	-4%
O=C(O)/C=C/c1ccccc1[N+](=O)[O-]	1%	-5%[46.1 µM]	3%[46.1 µM]	·	9%	4%	·	4%

Carrying on.
SMILES	SARS PLpro yeast	Lassa entry inh	Marburg entry inh	Cruzain Triton	RE007 growth inh	2A StopGo	Cruzain inh noDet	NS1 function inh
CC(C)(C)C1CCc2c(sc(NC(=O)c3ccc(Cl)cc3)c2C(=O)NCc2ccco2)C1 (stereo not given)	·	-16%[46.1 µM]	13%[46.1 µM]	-1.9%	·	-19%	-8%	·
CCOc1ccc2nc(NC(=O)C3CCN(C(=O)c4ccco4)CC3)sc2c1	-4%	24%[46.1 µM]	-10%[46.1 µM]	·	-9%	7%	·	8%
Clc1cccc(Oc2cnc3ccccc3n2)c1	1%	8%	-12%	-2.2%	-12%	41%[activator]	0%	-9%
Cc1cccc(C(=O)N2CCC(=O)N([C@H](COCc3ccc(Cl)cc3)Cc3ccccc3)CC2)c1	·	·	·	-3.3%	1%	-11%	?	·
CC(C)Cc1cc(C(=O)N2CCC(N3CCC(C(=O)NC4CC4)CC3)CC2)n[nH]1	0%	8%	-30%[46.1 µM]	·	1%	-9%	·	0%
CCOc1ccccc1NC(=O)C(C)n1nnc2sc3c(c2c1=O)CCCC3 (stereo not given)	·	16%[46.1 µM]	11%[46.1 µM]	6.2%	·	0%	-2%	·
Cc1cc([N+](=O)[O-])ccc1NCc1ccccc1	-21%	?	-25%	-11%	-20%	·	0%	-8%
CC1CCN(C(=O)CSc2ccc(-c3cccc([N+](=O)[O-])c3)nn2)CC1	0%	-7%	-22%[46.1 µM]	·	-17%	?	·	·
CC(C)(C)C(=O)NC1CC2CCCC(C1)N2C(=O)Nc1ccccc1Cl (stereo not given)	-2%	·	·	·	1%	-7%	·	1%
COc1ccc(/C=C2\N=C(SC)NC2=O)cc1	·	-2%	-13%	-3.6%	?	-5%	-1%	-18%
COc1nnc(-c2ccc(C)c(S(=O)(=O)NCCO)c2)c2ccccc12	-1%	2%	-4%	-0.3%	35%	28%	-8%	4%
Cc1cccc(NC(=O)NCCN2CCCCC2)c1	-3%	·	·	·	3%	5%	·	6%
O=C(c1ccc(N2CCOCC2)c([N+](=O)[O-])c1)N1CCCC(C(F)(F)F)C1 (stereo not given)	·	-2%[46.1 µM]	28%	·	16%	-14%	·	·
CC(C)Cn1cc(F)c(=O)n(CC(C)C)c1=O	5%	5%	0%[46.1 µM]	·	-2%	-16%	·	·
COc1ccc(OCC(=O)Nc2ccc(S(=O)(=O)N3CCCC3)cc2)cc1	1%	20%	0%[46.1 µM]	·	25%	-3%	·	3%
COc1ccc(N2CCc3c(C)nc4c(OC)cc(OC)cc4c32)cc1	-1%	?	?	·	-8%	?	·	-9%
COCCCNC(=O)c1cc2c(=O)n(C)c3ccccc3c2n1C	19%	·	·	9.7%	20%	-15%	4%	10%
CCC(=O)N/C(=N/c1nc(C)cc(C)n1)Nc1ccccc1	3%	-4%	-6%	·	-8%	-4%	·	3%
O=C(Nc1ccc2ncccc2c1)c1ccccc1	1%	26%[46.1 µM]	6%[46.1 µM]	·	-13%	1%	·	-3%
O=C(c1nn2c(C(F)(F)F)cc(-c3ccco3)nc2c1Br)N1CCCc2ccccc21	-11%	?	?	-0.2%	11%	0%	-27%	-16%
CCn1c(=O)cc(OCC(=O)Nc2ccccc2Cl)c2ccccc21	·	4%[46.1 µM]	·	-0.2%	·	?	-4%	·
CCOc1ccc(CNC(=S)N/N=C/c2cccnc2)cc1	5%	-25%	27%	-6.4%	19%	17%	-1%	6%
COc1ccc(Br)cc1CNC(=O)C1CCN(c2nnc(-n3cccc3CNc3ccc(C)cc3)s2)CC1	·	·	-6%[46.1 µM]	-1.8%	·	-22%	32µM*	·
COc1ccc(CC(=O)N2CC(C)CC(C)C2)cc1OC (stereo not given)	7%	3%	-7%	2.9%	4%	-14%	-5%	1%
O=C(NCCc1ccccc1)c1ccc(-c2ccc(F)cc2)o1	-3%	?	7%[46.1 µM]	·	-9%	27%	·	-33%

Remaining list, next part.
SMILES	SARS PLpro yeast	Lassa entry inh	Marburg entry inh	Cruzain Triton	RE007 growth inh	2A StopGo	Cruzain inh noDet	NS1 function inh
CCC(=O)N1CCc2cc(S(=O)(=O)NC(Cc3ccccc3)C(=O)NCc3ccc(F)cc3)ccc21 (stereo not given)	·	-27%[46.1 µM]	-12%[46.1 µM]	-1.5%	·	10%	-9%	·
CCn1c(/C=C/c2ccc(F)cc2)nc2ccccc2c1=O	-5%	·	·	·	-4%	-19%	·	-35%
Cc1cc(C)cc(N(CC(=O)N2CC=C(c3ccccc3)CC2)S(=O)(=O)c2c(C)noc2C)c1	-10%	·	·	-2.0%	16%	0%	?	?
COc1ccc2[nH]c3c(N4CCc5ccccc5C4)ncnc3c2c1	-19%	?	0.71µM*	·	29%	25µM*	·	-6%
CCOC(=O)C1CCCN(C(=O)c2ccc(-c3ccccc3Cl)o2)C1 (stereo not given)	·	-16%	-18%[46.1 µM]	·	-26%	9%	·	·
CCc1ccc(C(=O)CSc2nc(C)cc(=O)[nH]2)cc1	-2%	12%[46.1 µM]	22%[46.1 µM]	·	-6%	4%	·	2%
COc1ccc(NC(=O)/C=C/c2ccc(OC(F)F)cc2)cn1	0%	?	?	·	-11%	-30%	·	-5%
Cc1ccc(S(=O)(=O)c2nnn3c2nc(N2CCC(C(N)=O)CC2)c2ccccc23)cc1	8%	·	·	·	-9%	5%	·	-3%
COc1cccc2c1Oc1ncccc1N(C(=O)CCC(=O)NCc1ccccc1Cl)C2	3%	16%[46.1 µM]	·	-1.2%	6%	-4%&-10%	-2%	11%
COc1ccc(-c2c3c(=O)n(C)c(=O)n(C)c3c3c(-c4ccc(C)cc4)nc4ccccc4n23)cc1	·	3%[46.1 µM]	-27%[46.1 µM]	-1.8%	·	-24%	11%	·
Cc1ccc(C(=O)N2CCN(c3ccccn3)CC2)cc1[N+](=O)[O-]	1%	6%	?	·	0%	-6%	·	-1%
Cc1cc(C)n(CC(C)NC(=O)CCc2nnc(CCc3ccccc3)o2)n1 (stereo not given)	1%	-8%	11%[46.1 µM]	·	5%	18%	·	0%
